Assay outcomes: PubChem, Broad Institute
Yeast UUG start = modulators of start codon recognition fidelity in yeast; S. cerevisiae UUG-firefly luciferase reporter, luminescence/redox ratio; activity score, % at 18.7 µM; hit rate 0.13% among 350,000; AID 602363;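 active = replicate mean at a twofold rise or more, about +100% in these data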;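 note: firefly luciferase made from a UUG start codon reports start codon fidelity; reporter light over untreated wells divided by growth signal over untreated wells; some hits fall short of that in this replicate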
HIV Env fusion = HIV envelope-mediated fusion inhibition; HeLa-JRFL Env/CEM21 cell fusion, luciferase; hit rate 1.1% among 360,000; inhibition, % at 12.3 µM;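 active = mean replicate inhibition score of at least 50 and every replicate individually at or above 50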;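 note: 0% = plate neutral controls and 100% = maraviroc near 300 nM; one replicate is shown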
Active calls of the source: *; [ ] = dose if it differs, or a comment.

SMILES | Yeast UUG start | HIV Env fusion
CCNC(=O)C[C@H]1CC[C@H]2[C@@H](COc3ccc(NC(=O)Nc4ccccc4C)cc3C(=O)N2C)O1 | -1 | 12[16.7 µM]
C[C@@H]1CCCCO[C@@H](CN(C)Cc2ccc(Cl)c(Cl)c2)[C@@H](C)CN([C@H](C)CO)C(=O)c2cc(NC(=O)NC3CCCCC3)ccc2O1 | 10 | 6[16.7 µM]
C/C=C/c1ccc2c(c1)O[C@H](CN(C)C(=O)NC1CCCCC1)[C@H](C)CN([C@@H](C)CO)S2(=O)=O | -8 | 56*[16.7 µM]
CC(C)NC(=O)Nc1ccc2c(c1)C(=O)N([C@H](C)CO)C[C@H](C)[C@@H](CN(C)C(=O)c1ccccc1)OCCCC[C@H](C)O2 | -11 | -45[16.7 µM]
O=C(C[C@H]1C=C[C@@H](NC(=O)Nc2ccccc2)[C@@H](CO)O1)NCc1ccccn1 | -11 | 15[16.7 µM]
CNC[C@H]1OCCCC[C@@H](C)Oc2ccc(NC(=O)C3CCCCC3)cc2C(=O)N([C@H](C)CO)C[C@@H]1C | 4 | -28[16.7 µM]
C[C@@H]1CN([C@H](C)CO)C(=O)c2cccc(NC(=O)c3ccc(-c4nccs4)cc3)c2O[C@H]1CN(C)C(=O)Nc1ccc(F)cc1 | 4 | -5[16.7 µM]
C[C@@H]1CN([C@H](C)CO)C(=O)c2cc(NC(=O)Nc3ccc(F)cc3)ccc2O[C@@H](C)CCCCO[C@H]1CN(C)C(=O)Nc1ccc(F)cc1 | 6 | -3[16.7 µM]
C[C@@H]1CN([C@@H](C)CO)C(=O)c2cccc(NC(=O)C3CCOCC3)c2O[C@@H]1CN(C)C(=O)NC1CCCCC1 | -4 | -19[16.7 µM]
O=C(N[C@H]1CC[C@H](CCNS(=O)(=O)Cc2ccccc2)O[C@@H]1CO)c1ccccc1F | 11 | -15[16.7 µM]
C[C@@H]1CCCCO[C@@H](CN(C)C(=O)Nc2cccc3ccccc23)[C@H](C)CN([C@H](C)CO)C(=O)c2cc(NC(=O)CCC(F)(F)F)ccc2O1 | 6 | -3[16.7 µM]
C[C@@H]1CN([C@H](C)CO)S(=O)(=O)c2ccc(-c3ccccc3)cc2O[C@@H]1CN(C)C(=O)Nc1ccccc1F | -14 | 10[16.7 µM]
C[C@H](NC(=O)C[C@H]1CC[C@H]2[C@@H](COC[C@H](O)CN2Cc2cc(F)ccc2F)O1)c1ccccc1 | -8 | 5[16.7 µM]
Cc1ccc(S(=O)(=O)N[C@@H]2CC[C@H](CCNC(=O)C3CCC3)O[C@@H]2CO)cc1 | -1 | -1[16.7 µM]
Cc1ccccc1S(=O)(=O)N1[C@H](CO)[C@@H](c2ccccc2)[C@@H]1C#N | -4 | 0[16.7 µM]
COc1ccc(S(=O)(=O)Nc2ccc3c(c2)C(=O)N([C@H](C)CO)C[C@@H](C)[C@@H](CN(C)S(=O)(=O)c2ccc(Cl)cc2)OCCCC[C@H](C)O3)cc1 | 1 | -10[16.7 µM]
C[C@@H]1CCCCO[C@H](CN(C)S(=O)(=O)c2ccccc2)[C@H](C)CN([C@@H](C)CO)C(=O)c2cc(NS(=O)(=O)c3ccc(Cl)cc3)ccc2O1 | -3 | -33[16.7 µM]
Cc1noc(C)c1NC(=O)N(C)C[C@@H]1Oc2ccc(NC(=O)Nc3cccc4ccccc34)cc2CC(=O)N([C@H](C)CO)C[C@H]1C | 16 | 25[16.7 µM]
C[C@@H]1CN([C@@H](C)CO)C(=O)c2cc(NC(=O)c3ccncc3)ccc2O[C@@H](C)CCCCO[C@H]1CN(C)C(=O)NC1CCCCC1 | 7 | -14[16.7 µM]
C[C@H](CO)N1C[C@H](C)[C@@H](CN(C)Cc2ccc(F)cc2)Oc2ncc(C#Cc3cccnc3)cc2C1=O | -15 | 15[16.7 µM]
O=C(C[C@H]1CC[C@H](NC(=O)c2ccc3c(c2)OCO3)[C@@H](CO)O1)NCc1ccc(F)cc1 | -11 | 40[16.7 µM]
CN1CCN(C(=O)C[C@H]2CC[C@H]3[C@@H](COc4ccc(NC(=O)C5CCCCC5)cc4C(=O)N3C)O2)CC1 | -7 | -12[16.7 µM]
COc1ccc(S(=O)(=O)Nc2ccc3c(c2)C(=O)N([C@@H](C)CO)C[C@@H](C)[C@@H](CN(C)S(=O)(=O)c2ccc(F)cc2)O3)cc1 | 2 | -11[16.7 µM]
O=C(NCC[C@@H]1CC[C@H](NC(=O)C2CC2)[C@H](CO)O1)c1cc(Cl)cc(Cl)c1 | 7 | 6[16.7 µM]
C[C@H]1CN([C@@H](C)CO)C(=O)CCCn2cc(nn2)CO[C@@H]1CN(C)Cc1ccccc1C(F)(F)F | 5 | -7[16.7 µM]
COc1ccc(S(=O)(=O)N[C@@H]2CC[C@H](CCNC(=O)CN3CCOCC3)O[C@H]2CO)cc1 | 0 | -2[16.7 µM]
COc1cccc(NC(=O)N(C)C[C@@H]2Oc3ncc(/C=C/c4ccccc4)cc3C(=O)N([C@H](C)CO)C[C@H]2C)c1 | 21 | -10[16.7 µM]
CCCNC(=O)[C@@H]1c2ccccc2C(=O)N(Cc2ccccc2OC)[C@H]1c1ccc(CO)cc1 | -2 | 7[16.7 µM]
CC(C)NC(=O)N(C)C[C@@H]1OCCCC[C@@H](C)Oc2ccc(NC(=O)Nc3ccc4c(c3)OCO4)cc2C(=O)N([C@@H](C)CO)C[C@H]1C | 10 | -4[16.7 µM]
C[C@@H]1CN([C@H](C)CO)C(=O)Cc2cc(NC(=O)Cn3cnnn3)ccc2O[C@@H]1CN(C)S(C)(=O)=O | -12 | -17[16.7 µM]
CCC(=O)N(C)C[C@@H]1Oc2cc(C#Cc3cccnc3)ccc2S(=O)(=O)N([C@H](C)CO)C[C@@H]1C | 3 | 20[16.7 µM]
O=S(=O)(N[C@H]1CC[C@H](CCn2cc(C3CC3)nn2)O[C@H]1CO)c1ccc(F)cc1 | -2 | 3[16.7 µM]
CCCC#Cc1ccc2c(c1)O[C@@H](CN(C)C(=O)c1cnccn1)[C@H](C)CN([C@@H](C)CO)S2(=O)=O | -2 | -5[16.7 µM]
CCCNC(=O)N(C)C[C@H]1Oc2cc(C#CCC(C)C)ccc2S(=O)(=O)N([C@@H](C)CO)C[C@@H]1C | 5 | -6[16.7 µM]
COc1ccc(S(=O)(=O)Nc2ccc3c(c2)C(=O)N([C@H](C)CO)C[C@@H](C)[C@@H](CN(C)Cc2ccc(Cl)c(Cl)c2)O3)cc1 | 1 | -1[16.7 µM]
Cc1noc(C)c1NC(=O)Nc1cccc2c1O[C@H](CN(C)Cc1ccc(Cl)c(Cl)c1)[C@H](C)CN([C@H](C)CO)C2=O | 0 | -1[16.7 µM]
CO[C@H]1CN(C)C(=O)c2cc(NS(=O)(=O)c3ccc(F)cc3)ccc2OC[C@@H](C)NC[C@@H]1C | 8 | 25[16.7 µM]
CCCNC(=O)C[C@@H]1CC[C@@H]2[C@H](COc3ccc(NC(=O)Cc4cccs4)cc3C(=O)N2C)O1 | 5 | 5[16.7 µM]
C[C@@H]1CCCCO[C@@H](CN(C)C(=O)Cc2ccccc2)[C@@H](C)CN([C@H](C)CO)C(=O)c2cc(NC(=O)Cc3ccccc3)ccc2O1 | 2 | 22[16.7 µM]
COCC#Cc1cnc2c(c1)C(=O)N([C@H](C)CO)C[C@H](C)[C@@H](CN(C)C(=O)c1ccc(F)cc1)O2 | -2 | 3[16.7 µM]
O=C(C[C@H]1CC[C@H](NS(=O)(=O)c2ccccc2)[C@H](CO)O1)NCCN1CCCCC1 | -16 | 5[16.7 µM]
COc1ccc(CN(C)C[C@H]2Oc3c(NS(=O)(=O)c4ccccc4)cccc3C(=O)N([C@H](C)CO)C[C@@H]2C)cc1 | 11 | -3[16.7 µM]
COCC(=O)N(C)C[C@H]1Oc2ncc(C#CC3(O)CCCC3)cc2C(=O)N([C@H](C)CO)C[C@@H]1C | 25 | -1[16.7 µM]
C[C@H]1CN([C@@H](C)CO)C(=O)Cc2cc(NS(=O)(=O)c3ccc(F)cc3)ccc2O[C@H]1CN(C)C(=O)Nc1ccc(F)cc1 | -3 | 14[16.7 µM]
C[C@H](CO)N1C[C@H](C)[C@@H](CN(C)Cc2ccc3c(c2)OCO3)OCCCC[C@H](C)Oc2ccc(NS(=O)(=O)c3ccc(F)cc3)cc2C1=O | 24 | -30[16.7 µM]
COc1cccc(NC(=O)N(C)C[C@@H]2Oc3cc(-c4ccccc4OC)ccc3S(=O)(=O)N([C@H](C)CO)C[C@H]2C)c1 | 10 | -22[16.7 µM]
COc1ccc(NC(=O)Nc2ccc3c(c2)CC(=O)N([C@H](C)CO)C[C@@H](C)[C@H](CN(C)C(=O)Nc2ccc(OC)cc2)O3)cc1 | 14 | -9[16.7 µM]
CCCC#Cc1cnc2c(c1)C(=O)N([C@@H](C)CO)C[C@@H](C)[C@@H](CN(C)C(=O)Nc1cccc(F)c1)O2 | 15 | 0[16.7 µM]
C[C@@H]1CN([C@H](C)CO)C(=O)c2cc(NC(=O)c3ccncc3)ccc2O[C@@H](C)CCCCO[C@@H]1CN(C)C(=O)Cc1ccccc1 | 21 | -14[16.7 µM]
COc1ccc(NC(=O)N(C)C[C@H]2Oc3ccc(NC(=O)c4ccncc4)cc3CC(=O)N([C@@H](C)CO)C[C@H]2C)cc1 | -2 | 13[16.7 µM]
C[C@H]1CN([C@@H](C)CO)C(=O)Cc2cc(NC(=O)C3CC3)ccc2O[C@@H]1CN(C)C(=O)NC1CCCCC1 | -6 | 2[16.7 µM]
C[C@@H]1CCCCO[C@@H](CN(C)C(=O)c2ccccc2)[C@@H](C)CN([C@H](C)CO)C(=O)c2cc(NC(=O)CCCCCC(=O)Nc3ccccc3N)ccc2O1 | -7 | 18[16.7 µM]
C[C@@H]1CN([C@H](C)CO)C(=O)c2cc(C#C[C@@H](C)O)cnc2O[C@H]1CN(C)C(=O)CN1CCOCC1 | 4 | -35[16.7 µM]
CO[C@H]1CN(C)C(=O)c2ccc(NC(=O)C3CCCCC3)cc2OC[C@@H](C)N(C(=O)c2ccccc2)C[C@@H]1C | 14 | -4[16.7 µM]
C[C@@H]1CN([C@@H](C)CO)C(=O)Cc2cc(NC(=O)C3CCCCC3)ccc2O[C@H]1CN(C)S(=O)(=O)c1ccc(Cl)cc1 | 7 | -21[16.7 µM]
CO[C@H]1CN(C)C(=O)c2cc(NC(C)=O)ccc2OC[C@@H](C)N(C(=O)c2ccncc2)C[C@H]1C | -11 | 6[16.7 µM]
COCC(=O)Nc1ccc2c(c1)[C@@H]1C[C@H](CC(=O)NCc3ccc(OC)cc3)O[C@@H](CO)[C@@H]1O2 | -16 | -7[16.7 µM]
C[C@@H]1CN([C@H](C)CO)C(=O)c2cccc(NC(=O)Nc3ccc(F)cc3)c2O[C@@H]1CN(C)C(=O)Nc1ccc(F)cc1 | 9 | 0[16.7 µM]
O=C(O)C[C@H]1CC[C@@H](NC(=O)Nc2cc(F)ccc2F)[C@@H](CO)O1 | -4 | 0[16.7 µM]
C[C@@H]1CN([C@H](C)CO)C(=O)Cc2cc(NC(=O)C3CC3)ccc2O[C@H]1CN(C)C(=O)Nc1cccc2ccccc12 | 12 | -3[16.7 µM]

Reprinted from the listing, five compounds:
SMILES | Yeast UUG start | HIV Env fusion
C[C@@H]1CN([C@H](C)CO)C(=O)c2cc(NC(=O)c3ccncc3)ccc2O[C@@H](C)CCCCO[C@@H]1CN(C)C(=O)Cc1ccccc1 | 21 | -14[16.7 µM]
COc1ccc(NC(=O)N(C)C[C@H]2Oc3ccc(NC(=O)c4ccncc4)cc3CC(=O)N([C@@H](C)CO)C[C@H]2C)cc1 | -2 | 13[16.7 µM]
C[C@H]1CN([C@@H](C)CO)C(=O)Cc2cc(NC(=O)C3CC3)ccc2O[C@@H]1CN(C)C(=O)NC1CCCCC1 | -6 | 2[16.7 µM]
C[C@@H]1CCCCO[C@@H](CN(C)C(=O)c2ccccc2)[C@@H](C)CN([C@H](C)CO)C(=O)c2cc(NC(=O)CCCCCC(=O)Nc3ccccc3N)ccc2O1 | -7 | 18[16.7 µM]
C[C@@H]1CN([C@H](C)CO)C(=O)c2cc(C#C[C@@H](C)O)cnc2O[C@H]1CN(C)C(=O)CN1CCOCC1 | 4 | -35[16.7 µM]

Single values from the entries so far.
Value of C[C@@H]1CN([C@@H](C)CO)C(=O)Cc2cc(NC(=O)C3CCCCC3)ccc2O[C@H]1CN(C)S(=O)(=O)c1ccc(Cl)cc1 in Yeast UUG start: 7
Value of COc1cccc(NC(=O)N(C)C[C@@H]2Oc3cc(-c4ccccc4OC)ccc3S(=O)(=O)N([C@H](C)CO)C[C@H]2C)c1 in HIV Env fusion: -22[16.7 µM]
Value of C[C@@H]1CN([C@H](C)CO)C(=O)c2cccc(NC(=O)Nc3ccc(F)cc3)c2O[C@@H]1CN(C)C(=O)Nc1ccc(F)cc1 in HIV Env fusion: 0[16.7 µM]
Value of C[C@@H]1CN([C@H](C)CO)C(=O)c2cc(C#C[C@@H](C)O)cnc2O[C@H]1CN(C)C(=O)CN1CCOCC1 in Yeast UUG start: 4
Value of C[C@H]1CN([C@@H](C)CO)C(=O)Cc2cc(NC(=O)C3CC3)ccc2O[C@@H]1CN(C)C(=O)NC1CCCCC1 in HIV Env fusion: 2[16.7 µM]

(further entries)
SMILES | Yeast UUG start | HIV Env fusion
C[C@H]1CN([C@@H](C)CO)C(=O)c2cccc(NC(=O)c3ccc(-c4nccs4)cc3)c2O[C@H]1CN(C)CC1CCCCC1 | -1 | 8[16.7 µM]
C[C@@H]1CCCCO[C@@H](CN(C)C(=O)CCC(F)(F)F)[C@H](C)CN([C@@H](C)CO)C(=O)c2cc(NC(=O)C3CCCCC3)ccc2O1 | 34 | -4[16.7 µM]
C[C@H](CO)N1C[C@H](C)[C@@H](CN(C)C(=O)Nc2cccc(F)c2)Oc2ncc(C3=CCCCC3)cc2C1=O | 3 | -10[16.7 µM]
CN1C(=O)c2cc(NC(=O)Nc3ccc(Cl)cc3)ccc2OC[C@@H]2O[C@H](CC(=O)O)CC[C@@H]21 | 1 | 2[16.7 µM]
CCC(=O)N(C)C[C@@H]1Oc2cc(/C=C/c3ccccc3)ccc2S(=O)(=O)N([C@H](C)CO)C[C@H]1C | 14 | 15[16.7 µM]

A portion of the library. The share of hits here may be higher or lower than overall.
